Screening data: PubChem BioAssay, Broad Institute
NOMO-1 viab – NOMO-1 AML cell viability reduction, primary screen, STK33 inhibitor project, CellTiter-Glo luminescence. hit rate 7.5% among 37,000. inhibition, % (concentration not given with the values). NOMO-1 AML viability, 72 h;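 active = most replicates above 80%; inconclusive = exactly half above 80%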;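 also: wells of about 30 µL received 25 nL stock; 0% = median of vehicle wells and 100% = reference inhibitor level; the first replicate is given; inactives centre near 10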
An asterisk follows results filed as active; ? = inconclusive; & = joins results of further samples. The list is partial; rates above refer to the full screens.

SMILES	NOMO-1 viab
COc1ccn(C)c(=O)c1C#N	17
CNC(=O)O/N=C(/C)SC	-11
CC(=O)[C@H]1CC[C@H]2[C@@H]3CC[C@H]4C[C@H](O)CC[C@]4(C)[C@H]3CC[C@]12C	40
COC1=CC(=O)OC(/C=C/c2ccccc2)C1 (stereo unspecified)	-14
C[C@H]1C(=O)O[C@@H]2CCN3CC=C(COC(=O)[C@](C)(O)[C@]1(C)O)[C@H]23	0
O=[N+]([O-])c1ccc2nc(N3CCNCC3)ccc2c1	45
COC(/C=C/CC/C=C/C(=O)O)C(O)C(C)C(O)/C(C)=C/C(C)C(=O)CCCC1CC(=O)NC(=O)C1 (stereo unspecified)	22
Cc1cc(OC(=O)c2cccs2)c2c3c(c(=O)oc2c1)CCC3	9
CC(=O)c1cccc(NC(=O)CSC2c3ccccc3-c3ccccc32)c1	38
Cc1cccc(N2C(=O)NC(=O)C(CCc3ccncc3)(CCc3ccncc3)C2=O)c1	3
CC1(C)C(C(=O)Nc2ccc(S(=O)(=O)c3ccc(NC(=O)C4C(C)(C)C4(C)C)cc3)cc2)C1(C)C	-2
CC(C)c1cc2c(cc1O)[C@@]1(C)CCCC(C)(C)[C@@H]1CC2	?
CC1=NCCc2c1[nH]c1cc(O)ccc21	6&34
O=C(Nc1ccc2c(C(F)(F)F)cc(=O)oc2c1)c1nc2ncccn2n1	8
C/C=C1/C[C@@H](C)[C@](O)(CO)C(=O)OCC2=CCN3CC[C@@H](OC1=O)[C@@H]23	11
COc1cc(C2=NC(O)C(=O)Nc3ccc(Cl)cc32)ccc1O (stereo unspecified)	3
CC(C)=CCc1c(O)cc2c(c1O)C(=O)CC(c1ccc(O)cc1)O2 (stereo unspecified)	28
Cc1cccnc1-n1c(CN2C(=O)c3ccccc3C2=O)nc2ccccc2c1=O	39
COc1cc2c3c(c1OC)-c1c(ccc(O)c1O)CC3N(C)CC2 (stereo unspecified)	35
CC[C@@]1(O)C(=O)OCc2c1cc1n(c2=O)Cc2cc3c(O)cccc3nc2-1	119*

Part of the list above in order of length of the SMILES, rising.
SMILES	NOMO-1 viab
CNC(=O)O/N=C(/C)SC	-11
COc1ccn(C)c(=O)c1C#N	17
CC1=NCCc2c1[nH]c1cc(O)ccc21	6&34
COC1=CC(=O)OC(/C=C/c2ccccc2)C1 (stereo unspecified)	-14
O=[N+]([O-])c1ccc2nc(N3CCNCC3)ccc2c1	45
COc1cc(C2=NC(O)C(=O)Nc3ccc(Cl)cc32)ccc1O (stereo unspecified)	3
COc1cc2c3c(c1OC)-c1c(ccc(O)c1O)CC3N(C)CC2 (stereo unspecified)	35
CC(=O)c1cccc(NC(=O)CSC2c3ccccc3-c3ccccc32)c1	38
CC(C)=CCc1c(O)cc2c(c1O)C(=O)CC(c1ccc(O)cc1)O2 (stereo unspecified)	28
CC(C)c1cc2c(cc1O)[C@@]1(C)CCCC(C)(C)[C@@H]1CC2	?
O=C(Nc1ccc2c(C(F)(F)F)cc(=O)oc2c1)c1nc2ncccn2n1	8
Cc1cccnc1-n1c(CN2C(=O)c3ccccc3C2=O)nc2ccccc2c1=O	39
CC[C@@]1(O)C(=O)OCc2c1cc1n(c2=O)Cc2cc3c(O)cccc3nc2-1	119*
Cc1cccc(N2C(=O)NC(=O)C(CCc3ccncc3)(CCc3ccncc3)C2=O)c1	3
C[C@H]1C(=O)O[C@@H]2CCN3CC=C(COC(=O)[C@](C)(O)[C@]1(C)O)[C@H]23	0
C/C=C1/C[C@@H](C)[C@](O)(CO)C(=O)OCC2=CCN3CC[C@@H](OC1=O)[C@@H]23	11
CC(=O)[C@H]1CC[C@H]2[C@@H]3CC[C@H]4C[C@H](O)CC[C@]4(C)[C@H]3CC[C@]12C	40
CC1(C)C(C(=O)Nc2ccc(S(=O)(=O)c3ccc(NC(=O)C4C(C)(C)C4(C)C)cc3)cc2)C1(C)C	-2

Some values from the list:
Under NOMO-1 viab, CC[C@@]1(O)C(=O)OCc2c1cc1n(c2=O)Cc2cc3c(O)cccc3nc2-1 reads 119*
Under NOMO-1 viab, C/C=C1/C[C@@H](C)[C@](O)(CO)C(=O)OCC2=CCN3CC[C@@H](OC1=O)[C@@H]23 reads 11

More entries:
SMILES	NOMO-1 viab
CCC(C)[C@H]1C(=O)O[C@H](C(C)C)C(=O)N(C)[C@@H](C(C)CC)C(=O)O[C@H](C(C)C)C(=O)N(C)[C@@H](C(C)CC)C(=O)O[C@H](C(C)C)C(=O)N1C (stereo partly specified)	119*
CC(C)C[C@H]1C(=O)N2CCC[C@H]2[C@]2(O)O[C@](NC(=O)[C@@H]3C=C4c5cccc6[nH]cc(c56)C[C@H]4N(C)C3)(C(C)C)C(=O)N12	?
CCc1nc2ccccc2c(=O)n1-c1ccc(OC)cc1	6
O=C(O)CP(=S)(c1ccccc1)c1ccccc1	-14
CCC1=CC2CN3CCc4c([nH]c5ccccc45)[C@@](C(=O)OC)(C2)[C@@H]13	33
CN1C(=O)c2ccccc2NC(=O)[C@]12O[C@@H]2c1ccccc1	4
COc1ccc(CCNCc2cccnc2)cc1OC	20
CC(=O)O[C@@H](c1nc2ccccc2c(=O)n1[C@@H]1C[C@@]2(OC1=O)c1ccccc1N1C(=O)[C@H](C)N(O)[C@@H]12)C(C)C	84*
CC[C@H]1CN2CC[C@H]1C[C@@H]2[C@@H](O)c1ccnc2ccc(OC)cc12	23
Cn1c[n+](C)cc1C(O)c1ccccc1 (stereo unspecified)	9
CC12CN3CN(C1)CC(c1ccccc1)(C3)C2=O	-9
O=C(/C=C/c1ccccc1)OCC1OC(OC2OC=CC3C(O)C4OC4(CO)C23)C(O)C(O)C1O (stereo unspecified)	1
COC1=CC23CCN(C)[C@H](Cc4cc(OC)c(OC)cc42)C3=CC1=O	25
COC(C/C=C/C=C/CC/C=C\CC(C)/C=C\C(=C/C(=O)O)CC(=O)O)/C(C)=C\C=C(/C)C(=O)O (stereo unspecified)	-11
CC(C)(C)c1ccc(O)c(CN2CCN(c3ccccc3)CC2)c1	13
COCc1cc(OC(=O)N(C)C)nc2c1c(-c1cccs1)nn2C	18
C/C=C1/C[N+]2([O-])C3CC1C(CO)C2Cc1c3[nH]c2ccc(OC)cc12 (stereo unspecified)	15
CC[C@]12C=CCN3CC[C@@]4(c5ccc(OC)cc5N(C)[C@H]4[C@@](O)(C(=O)OC)[C@@H]1OC(C)=O)[C@@H]32	19
CN1C[C@H](CO)C=C2c3cccc4[nH]cc(c34)C[C@H]21	16
CCC(C)C1NC(=O)C2CCCN2C(=O)C(CC(C)C)OC(=O)CCNC(=O)C(C)N(C)C(=O)C(C(C)C)N(C)C1=O (stereo unspecified)	106*
CC(C)(CN)CNc1ccc([N+](=O)[O-])c2cccnc12	73
O=C1NCN(c2ccccc2)C12CCN(CCCOc1ccc(F)cc1)CC2	21
COc1ccccc1OCCCn1cc(C(=O)C(C)(C)C)c2ccccc21	37
COC(=O)c1c(C)n(CCCOC(C)C)c2c1cc(O)c1ccccc12	4
COc1ccc(CCNCc2cc(Cl)cc(Cl)c2OC)cc1OC	15
CCCN1CCO[C@@H]2c3cc(O)ccc3OC[C@H]21	13
CCCc1c(C)nc(SCC(=O)C(C)(C)C)nc1OC(=O)N(C)C	-5
CCCOC(=O)c1cc2c(cn1)[nH]c1ccccc12	4
CC(C)(O)CCC(=O)[C@](C)(O)[C@H]1[C@H](O)C[C@@]2(C)[C@@H]3CC=C4C(C=C(O[C@@H]5O[C@H](CO)[C@@H](O)[C@H](O)[C@H]5O)C(=O)C4(C)C)[C@]3(C)C(=O)C[C@]12C (stereo partly specified)	-10
CC(C)C12CN3CCN(CC(C3)/C1=N/N)C2	-10
CN1CCc2c(c(N3CCCCC3)nc3n[nH]c(N)c23)C1	26
CC(C)c1cc2c(cc1O)[C@@]1(C)C[C@@H](O)CC(C)(C)C1CC2 (stereo partly specified)	103*
C=C1C(=O)O[C@@H]2/C=C(/C)CC/C=C(/C)C[C@@H](OC(=O)/C(=C/CO)CO)C12 (stereo partly specified)	119*
C[C@@]1(C(=O)O)CC[C@]2(C)CC[C@]3(C)C4=CC(=O)c5cc(O)c(O)cc5[C@]4(C)CC[C@@]3(C)[C@@H]2C1	76
CC(=O)OC1CCC2(C)C(CC[C@@H]3[C@@H]2CCC2(C)C(C4=CC(=O)OC4)CCC32O)C1 (stereo partly specified)	109*
CC(C(=O)Nc1ccc(Cl)cc1C(=O)c1ccccc1)N1C(=O)C2C3C=CC(C3)C2C1=O (stereo unspecified)	36
O=C1CSC(c2ccccc2Cl)c2cc(Cl)ccc2N1 (stereo unspecified)	50
O[C@@H]1CCCC[C@H]1N1CCC(c2ccccc2)CC1	19
CCCN1CCc2cc(O)cc3c2[C@H]1Cc1ccc(O)c(O)c1-3	109*
Cc1ccc(NC(=O)c2cccc(OC(=O)N(C)c3ccccc3)c2)cc1C	20
C=CCC1(NCCc2ccccc2)CCCCC1	14
